# Source: PubChem BioAssay (National Center for Advancing Translational Sciences (NCATS))
# miR-21 FLuc: qHTS Assay for Modulators of miRNAs and/orActivators of miR-21 | 340,000 tested, under 10 active | Potency, µM (highest dose often 38.3 µM), for the others: at the top dose reporter change, positive = more light | HeLa miR-21 FLuc reporter, luciferase, 48 h; active = well fitted rising curve with a large enough effect; inconclusive = small, poorly fitted or top-dose-only effect; inactive = no such curve, though single readings can be large or run the other way;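 further: % of control where 0% means no effect; miR-21 action dims this reporter so a rising signal means less miR-21 action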
#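 Luminescence from a firefly luciferase reporter carrying a miR-21 binding site downstream, stably expressed under a CMV promoter in HeLa cells that make miR-21 endogenously, reports miRNA modulation after 48 h compound exposure up to approximately 40uM final.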
# GLA inh pH 4.5: qHTS Assay for Inhibitors of Human alpha-Galactosidase at pH 4.5; Alpha-galactosidase A (Homo sapiens), P06280; purified enzyme, 4-MU-alpha-Gal fluorescence, pH 4.5; activity change, negative = inhibition, % at 105 µM; 230,000 tested, under 10 active; AID 1467, 2008; inconclusive = small, poorly fitted or top-dose-only inhibition, or a rising curve; inactive = flat fitted curve, though single readings scatter; no compound was filed as active;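 further: 0% = full activity with enzyme and -100% = basal without enzyme; dose as in the result columns while the protocol names 77 µM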
# Target sequence (P06280 whole entry, looked up): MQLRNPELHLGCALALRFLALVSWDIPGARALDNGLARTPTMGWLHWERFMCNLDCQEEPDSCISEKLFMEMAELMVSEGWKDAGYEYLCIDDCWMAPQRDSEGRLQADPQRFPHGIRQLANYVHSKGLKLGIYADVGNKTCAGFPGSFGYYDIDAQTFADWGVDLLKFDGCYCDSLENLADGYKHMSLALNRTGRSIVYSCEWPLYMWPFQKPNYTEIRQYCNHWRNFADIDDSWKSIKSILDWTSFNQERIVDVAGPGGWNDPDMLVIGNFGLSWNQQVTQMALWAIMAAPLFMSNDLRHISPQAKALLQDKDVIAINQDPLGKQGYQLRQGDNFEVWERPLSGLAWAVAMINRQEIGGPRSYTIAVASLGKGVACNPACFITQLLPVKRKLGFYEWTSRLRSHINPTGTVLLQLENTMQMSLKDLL
# Rango-impB inh: qHTS Assay for Inhibitors of Rango (Ran-regulated importin-beta cargo) - Importin beta complex formation | AID 540263, 2011 | hit rate 0.031% among 340,000 | Potency, µM (top dose mostly 92.2 µM), inactives show at the top dose inhibition of complex formation | Rango CFP/YFP FRET sensor + importin beta, 45 min; active = rising FRET ratio curve, often small or poorly fitted; inconclusive = mostly compound fluorescence or quenching in the first reads; inactive = flat curves in all reads;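 further: potency means the concentration at half of the fitted maximal effect; 0% = DMSO wells and 100% = buffer wells lacking importin beta; nearly all actives have a fitted effect of over 15% in size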
#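 Inhibition scored from the CFP 486 nm/YFP 530 nm FRET ratio 45 min after adding 0.125 microM importin beta to 50 nM Rango biosensor preincubated 5 min with compound (room temperature, PBS with DTT, Tween-20, BSA). No-importin wells as positive control.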
# Rango dissoc inh: qHTS Assay for Inhibitors of RanGTP induced Rango (Ran-regulated importin-beta cargo) - Importin beta complex dissociation; Snurportin-1 (Homo sapiens) + GTP-binding nuclear protein Ran (Homo sapiens) + Importin …; Biochemical FRET Rango-importin beta, RanGTP-induced dissociation; Potency, µM (titrated, usually from 46.1 µM), for the others: at the highest dose activity change, negative = inhibition; hit rate 0.071% among 340,000; AID 540253, 2011; active means falling FRET ratio curve, often poorly fitted, with flat reads before Ran was added; inconclusive means other falling curves, or compound fluorescence or quenching; inactive means flat or rising ratio curve;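 further: potency means the concentration at half of the fitted maximal effect; % of control where 0% means no effect; nearly all actives have a fitted effect of over 45% in size; -100% = wells without RanGTP and RCC1; the record marks most hits as doubtful in a second field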
#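 Rango FRET biosensor (snurportin-1 IBB flanked by N-terminal EYFP and C-terminal CFP10) at 0.1 uM, with 0.25 uM importin beta in PBS, 1mM DTT, 0.02% Tween-20, 0.1% BSA. 0.6 uM Ran, 2mM GTP and 0.2 uM RCC1 were then added for 45 min at room temperature. Inhibition read as loss of FRET rise.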
# The depositor's hits bear a star; ? = inconclusive; . = no result given; [ ] = remark or other dose.
entry	structure	Rango-impB inh	Rango dissoc inh	GLA inh pH 4.5	miR-21 FLuc
1	CCN(CC)C(=O)c1ccccc1NS(C)(=O)=O	0.2%	2%	3	-3%
2	O=C(CN1CCCC1)Nc1ccccc1Sc1ccc(Cl)cc1	5.0%	-9%	-4	-10%
3	COc1ccc(/C=N/N=C2/C(=O)Nc3ccccc32)cc1O	3.2%	10%	-7	-1%
4	CCO[C@@H]1c2c(ccc3ccc(=O)oc23)OC(C)(C)[C@H]1O	0.4%	-7%	.	.
5	c1ccc2c(c1)nc1n2CC2CON(C3CCCCC3)C12 (stereo not drawn)	-3.5%	0%	6	-10%
6	CC(=O)c1sc(-c2c(C)nc3sccn23)nc1C1CCCC1	.	.	-8	-8%
7	N=C1SC(c2ccccc2)C(=O)N1c1ncc(Cc2ccccc2Cl)s1 (stereo not drawn)	-0.4%	14%	-17	-12%
8	CC1(C)C2CCC1(C)C(NC(=O)CCN1CCCCC1)C2 (stereo not drawn)	1.3%	0%	-2	-9%
9	Cc1ccc(NC(=O)c2ncn(CC(=O)N[C@H](CO)Cc3c[nH]c4ccccc34)n2)cc1C	-0.4%	-2%	.	.
10	O=C(NCCc1c[nH]c2ccccc12)C1CCC(=O)N(CCc2cccc(F)c2)C1 (stereo not drawn)	-0.5%	0%	.	1%
11	O=C(/C=C/c1cn(-c2ccccc2)nc1-c1cccs1)NCCN1CCOCC1	4.9%	12%	-5	10%
12	CCN(CC(=O)NCc1cccs1)C(=O)c1cccc(S(=O)(=O)Nc2ccc(C)cc2)c1	1.9%	-6%	.	.
13	CC1(O)CC(c2ccc(Cl)cc2)=NN1C(=O)c1ccc(Cl)cc1 (stereo not drawn)	-0.3%	-10%	.	1%
14	COC(=O)C(CC(=O)CNC(=O)c1ccccc1)NC(=O)c1ccccc1 (stereo not drawn)	-0.3%	-13%	.	.
15	COc1ccc(Cl)cc1NC(=O)N1CCN(S(C)(=O)=O)CC1	0.8%	-9%	8	-3%
16	CCOc1ccc(OCCOCCn2ccnc2)cc1	1.2%	6%	3	-2%
17	COc1cccc(NC(=O)C(Cc2ccccc2)n2cccc2)c1 (stereo not drawn)	-0.2%	-12%	-11	7%
18	CC(C)CN1CCC(=O)N([C@H](CN=[N+]=[N-])Cc2ccccc2)CC1	0.1%	9%	.	-4%
19	Cc1ccc(CN2CC(C(=O)NNC(=O)c3ccc(F)cc3)CC2=O)cc1 (stereo not drawn)	-5.1%	14%	.	.
20	O=C1CSC(=O)N1CCOCCN1C(=O)CSC1=O	-2.0%	14%	-3	-2%
21	O=C(Nc1ccc2c(c1)OCCO2)c1ccccc1F	6.0%	1%	6	-1%
22	COC(=O)COc1ccc(/C=C2/NC(=O)N(CC(=O)OC)C2=O)cc1	2.6%	-12%	-6	1%
23	N=c1c(S(=O)(=O)c2ccccc2)cc2c(=O)n3ccccc3nc2n1CCCN1CCOCC1	?	?	.	1%
24	CCc1cccc(NC(=O)Cn2cc3c(n2)CCCC3)c1	-4.8%	-5%	-4	-18%
25	CC(=O)Nc1ccc(NC(=O)CCn2c(=O)oc3ccccc32)cc1	-1.5%	5%	.	5%
26	CCN(CC)S(=O)(=O)c1ccc(NC2c3ccccc3C(=O)N2c2ccc(C)cn2)cc1 (stereo not drawn)	1.2%	4%	-2	-15%
27	COc1ccc(CN2CCC(N3CC(C)OC(C)C3)CC2)c(OC)c1 (stereo not drawn)	1.5%	6%	.	0%
28	CCSc1ccccc1C(=O)N1CCN(c2ccccc2F)CC1	3.6%	12%	-1	-8%
29	O=C(Nc1nc(-c2ccccc2)c(-c2ccccc2)s1)c1ccc(S(=O)(=O)N2CCCCC2)cc1	1.5%	1%	-1	-3%
30	O=C(CSC(=S)N1CCOCC1)N1N=CCC1c1ccccc1 (stereo not drawn)	4.2%	3%	8	-9%
31	COC(=O)[C@H]1[C@H]2C[C@H]3c4[nH]c5ccccc5c4CCN3C[C@H]2CC[C@@H]1O	?	-13%	-6	3%
32	CN(/N=C/c1c[nH]c2ccccc12)c1cnn(-c2ccc(F)c(Cl)c2)c(=O)c1Cl	-0.7%	-2%	-10	-1%
33	C[C@H](CO)N1C[C@H](C)[C@@H](CN(C)S(=O)(=O)c2ccccc2)Oc2c(NS(=O)(=O)c3ccccc3)cccc2C1=O	0.4%	-4%	.	.
34	O=C1c2ccccc2C(=O)C1c1ccc(Br)cc1	13%	6%	.	-52%
35	C=CCNC(=O)CC(=O)N/N=C/c1cccc(Br)c1	3.0%	1%	4	1%
36	CSc1ccc(Cl)c(C(=O)N2CCN(CC(=O)N3CCCC3)CC2)c1	-1.1%	0%	.	.
37	Cc1cccc(NC(=O)CCN2C(=O)c3ccccc3C2=O)c1	2.0%	-9%	.	-3%
38	Cc1cc(=O)n2[nH]c(-c3ccco3)nc2n1	1.1%	-4%	2	2%
39	O=C(Nc1cc(Cl)ccc1O)C1CC(c2ccccc2Cl)=NO1 (stereo not drawn)	-0.1%	2%	.	-5%
40	CCOc1ccc(NC(=O)c2cnccn2)cc1	-0.8%	3%	-6	-17%
41	CC[n+]1c(/C=C(/C)SC)sc2ccccc21	-3.3%	2%	-1	0%
42	COc1cc(/C=C/C(=O)O)cc(S(=O)(=O)Nc2ccccc2SC)c1OC	5.4%	32%	2	3%
43	COc1ccc(-c2noc(CN3CCN(c4ccccc4F)CC3)n2)cc1OC	1.4%	-9%	-8	-4%
44	COc1ccc(-c2nc(N)nc(C)c2Oc2ccccc2Br)c(O)c1	-0.6%	-14%	-27	20%
45	CC(C)(Oc1ccc(Cl)cc1)C(=O)N/N=C/c1cn[nH]c1-c1ccccc1	3.5%	14%	-4	7%
46	COc1nc2ccccc2nc1OC	-5.6%	4%	-1	2%
47	CCN(Cc1ccc(OC)c(F)c1)C(=O)/C=C/c1ccc(S(=O)(=O)N2CCOCC2)cc1	2.2%	-2%	.	.
48	COc1ccc(OCC(=O)N2CCN(C(=O)c3ccc(F)cc3)CC2)cc1	-0.3%	6%	.	0%
49	CC1CCCC(C)N1C(=O)COC(=O)c1ccco1 (stereo not drawn)	-1.6%	-13%	.	.
50	CN(C)CCCNC(=O)C[C@H]1C[C@H](C(=O)N2CCCCC2)[C@@]2(C)c3[nH]c4cc(CCC(=O)N(C)C)ccc4c3CCN2C1=O	-1.0%	1%	.	.

# Next structures follow.
entry	structure	Rango-impB inh	Rango dissoc inh	GLA inh pH 4.5	miR-21 FLuc
51	Cc1c(C(=O)c2ccc(Cl)c(Cl)c2)cnc2cc3c(cc12)OCO3	0.3%	9%	-6	-6%
52	Cc1ccc(N2C(=O)CC(Cc3ccc(Cl)cc3)C2=O)cc1 (stereo not drawn)	2.7%	6%	.	7%
53	C[N+](C)(C)CCOP(=O)([O-])OC[C@H](O)CO	1.2%	-7%	1	0%
54	Cc1cccnc1NC(=O)Nc1ccc(F)cc1	-0.3%	1%	3	-25%
55	CCOC(=O)C1CCN(C(=O)CN2C(=O)c3cccnc3Oc3ccc(C)cc32)CC1	3.8%	-11%	.	0%
56	CCCC(=O)Nc1sc(C(=O)Nc2cccc(N)c2)c(C)c1C(=O)OC	-0.7%	8%	-8	-12%
57	O=S(=O)(c1ccc(Oc2ccc(Cl)cc2)c(S(=O)(=O)N2CCCCC2)c1)N1CCCCC1	1.2%	-6%	4	-1%
58	CCCN(CC(=O)Nc1ccc(F)c(F)c1F)C(=O)C1CC(=O)N(Cc2ccccc2)C1 (stereo not drawn)	-0.2%	5%	.	.
59	COc1ccc(-c2nc3ccc(C)cn3c2NCc2ccc3c(c2)OCO3)cc1	1.3%	-7%	3	-49%
60	CCOc1cc(CNCC2CCCN2CC)cc(Cl)c1OC (stereo not drawn)	1.1%	0%	11	-2%
61	COc1ccc(C(C)NC(=O)Nc2ccc(C(C)=O)cc2)cc1OC (stereo not drawn)	0.2%	?	.	-54%
62	COc1ccc(C(C[N+](=O)[O-])c2c(C)cc3ccccn23)c(OC)c1 (stereo not drawn)	-3.7%	-16%	.	12%
63	O=C(COC(=O)c1ccc([N+](=O)[O-])o1)NCCCc1ccccc1	-4.5%	-8%	.	.
64	COc1ccc(NC(=O)c2oc3ccccc3c2NC(=O)C2CC2)cc1	2.5%	-17%	4	0%
65	COc1ccc(S(=O)(=O)N2CCOCC2)cc1NC(=O)c1cccc(-n2cccc2)c1	0.3%	17%	.	.
66	CC(=O)Nc1cccc(C(=O)OCC(=O)NNC(=O)c2ccc([N+](=O)[O-])cc2)c1	-0.4%	14%	.	.
67	O=C(OCc1nnc(-c2ccc(Br)cc2)o1)c1ccco1	-0.1%	2%	.	-8%
68	COc1ccc(S(=O)(=O)Nc2c(C)n(C)n(-c3ccccc3)c2=O)cc1	-2.1%	29%	-8	-4%
69	O=C(Cc1ccc(Cl)c(Cl)c1)Nc1cccc(S(=O)(=O)N2CCOCC2)c1	?	11%	2	12%
70	C[C@]12c3[nH]c4cc(-c5ccco5)ccc4c3CCN1C(=O)[C@@H](CC(=O)NCc1ccco1)C[C@@H]2C(=O)N1CCOCC1	-0.6%	-9%	.	.
71	CCOc1ccc(N(CC(=O)NCc2ccc(F)cc2)C(=O)CCC(=O)Nc2nccs2)cc1	0.0%	-1%	.	7%
72	Cc1ccc(NC(=S)NC(=O)c2ccc(-c3ccccc3)cc2)c(C)c1	2.9%	27%	4	0%
73	CN(C(=O)CSc1nc2ccccc2c(=O)n1-c1ccccc1Cl)C1CCS(=O)(=O)C1 (stereo not drawn)	0.6%	3%	.	.
74	CCCCN(CC)C(=O)Cn1cnc2ccc(S(=O)(=O)N3CCC(C)CC3)cc2c1=O	-3.3%	-5%	-6	-5%
75	Cc1ccccc1OCC(=O)OCC(=O)c1c[nH]c2ccccc12	-2.5%	-9%	.	.

# Of the compounds above, 6 contain a furan ring, fused or not:
entry	structure	Rango-impB inh	Rango dissoc inh	GLA inh pH 4.5	miR-21 FLuc
38	Cc1cc(=O)n2[nH]c(-c3ccco3)nc2n1	1.1%	-4%	2	2%
49	CC1CCCC(C)N1C(=O)COC(=O)c1ccco1 (stereo not drawn)	-1.6%	-13%	.	.
63	O=C(COC(=O)c1ccc([N+](=O)[O-])o1)NCCCc1ccccc1	-4.5%	-8%	.	.
64	COc1ccc(NC(=O)c2oc3ccccc3c2NC(=O)C2CC2)cc1	2.5%	-17%	4	0%
67	O=C(OCc1nnc(-c2ccc(Br)cc2)o1)c1ccco1	-0.1%	2%	.	-8%
70	C[C@]12c3[nH]c4cc(-c5ccco5)ccc4c3CCN1C(=O)[C@@H](CC(=O)NCc1ccco1)C[C@@H]2C(=O)N1CCOCC1	-0.6%	-9%	.	.

# Remaining list, next part:
entry	structure	Rango-impB inh	Rango dissoc inh	GLA inh pH 4.5	miR-21 FLuc
76	Cc1ccccc1NC(=O)CSCc1nc(N)nc(Nc2ccccc2C)n1	-0.7%	-16%	-6	-28%
77	CCc1nnc(SCC(=O)Nc2ccc(N3CCOCC3)cc2)o1	-2.9%	-4%	1	-4%
78	CC(=O)Nc1cccc(C(=O)N/N=C/c2ccc(C)o2)c1	-2.5%	-16%	2[21.1 µM]	-16%
79	C/C(=N/NC(=O)c1ccc(C)s1)c1cccc(NC(=O)COc2ccc(Cl)cc2Cl)c1	7.0%	0%	-2	-12%
80	COCOc1ccc(/C=C/C(=O)c2c(O)cc(OCOC)cc2OCOC)cc1	-0.1%	-2%	.	.
81	CC(C)N1C[C@@]23C=C[C@@H](O2)C(C(=O)OCc2ccccc2)[C@H]3C1=O (stereo partly drawn)	-3.9%	-2%	5	-1%
82	CCOc1ccc(NC(=S)NC(=O)c2c(Cl)c(C)nn2C)c([N+](=O)[O-])c1	0.1%	0%	1	-1%

# These rows are one share of the data; count on the stated rates, not on these rows.
